Screening data (PubChem BioAssay)
Mtb MbtI inh – blocks the Mycobacterium tuberculosis siderophore enzyme MbtI; AID 493033; purified MbtI enzyme, fluorescence intensity read-out; P9WFX0; inhibition, %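 (about 17 µg/mL by stock and volumes)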; 100,000 compounds, 0.89% hits;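 active means above 50% in both replicates, above 80% if mildly self-fluorescent; inactive means the rest, strongly fluorescent compounds included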;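 further: 0% = mean of negative and 100% = mean of positive controls; one replicate is shown; some compounds called inactive have numbers as strong as hits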
Target sequence (P9WFX0 whole entry, looked up): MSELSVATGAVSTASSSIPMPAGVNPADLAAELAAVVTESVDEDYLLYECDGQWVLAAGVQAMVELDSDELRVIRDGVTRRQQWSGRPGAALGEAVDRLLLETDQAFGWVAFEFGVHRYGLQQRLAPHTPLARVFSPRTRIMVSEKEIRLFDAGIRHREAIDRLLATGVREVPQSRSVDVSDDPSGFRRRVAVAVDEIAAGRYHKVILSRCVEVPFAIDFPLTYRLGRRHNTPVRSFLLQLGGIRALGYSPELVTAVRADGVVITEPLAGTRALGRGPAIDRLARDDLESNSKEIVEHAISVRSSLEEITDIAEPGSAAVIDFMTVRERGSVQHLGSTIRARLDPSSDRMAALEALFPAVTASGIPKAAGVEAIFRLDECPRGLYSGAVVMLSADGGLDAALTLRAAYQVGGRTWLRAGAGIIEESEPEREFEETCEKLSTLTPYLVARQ
Mtb MenB inh – blocks the Mycobacterium tuberculosis MenB enzyme | MenB enzyme assay, absorbance read-out; some hits fall short of the stated cut | inhibition, %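 (about 12 µg/mL by stock and volumes)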 | 100,000 compounds, 0.43% hits | AID 540299;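 active means mean of two replicates above 30%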;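 further: 0% = no compound and 100% = wells with inactive enzyme; the first replicate is given; strong numbers were not always called active; inactives centre near -10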
PV pol inh – inhibitors of poliovirus RNA polymerase binding and polymerization; poliovirus polymerase elongation, fluorescence polarization; active compounds read low; P03300; % elongation, % (compound at 16.7 µg/mL); AID 588519; 150,000 compounds, 0.66% hits; in the data active means % elongation below about 90%; further: some results filed as inactive read as strong as hits
Target sequence (P03300 1749-2209 limits assumed): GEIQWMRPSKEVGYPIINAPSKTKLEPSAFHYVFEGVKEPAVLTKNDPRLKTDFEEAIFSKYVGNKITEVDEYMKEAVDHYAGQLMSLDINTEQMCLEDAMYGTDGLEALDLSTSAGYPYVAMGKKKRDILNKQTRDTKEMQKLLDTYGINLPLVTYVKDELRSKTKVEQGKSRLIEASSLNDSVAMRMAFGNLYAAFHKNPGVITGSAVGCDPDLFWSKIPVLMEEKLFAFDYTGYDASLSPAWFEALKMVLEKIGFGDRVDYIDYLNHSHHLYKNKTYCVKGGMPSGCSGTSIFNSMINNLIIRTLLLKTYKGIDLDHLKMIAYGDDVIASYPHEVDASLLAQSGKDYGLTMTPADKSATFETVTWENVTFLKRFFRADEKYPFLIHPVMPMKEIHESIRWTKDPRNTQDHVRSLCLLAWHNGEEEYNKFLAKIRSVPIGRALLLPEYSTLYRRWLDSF
PV pol inh intensity – second read-out of PV pol inh, no call of its own (marks repeat the call); % elongation; measured here: total intensity read-out; formula for this scale not given here;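 total fluorescence in place of polarization; lower means less elongation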
Starred values were filed as active, the others as inactive; / = not tested or not shown; & = joins results of further samples.

No.	SMILES	Mtb MbtI inh	Mtb MenB inh	PV pol inh	PV pol inh intensity
1	Cc1ccc(NC(=O)CSc2nnc(C)n3c2cc2sccc23)cc1F	-2	3	101	106
2	O=c1cc(CO)oc2c1OCN(C1CCS(=O)(=O)C1)C2 (configuration not stated)	7	-9	107	104
3	CCOc1ccccc1N1CC(C(=O)NC2CCCCCC2)CC1=O (configuration not stated)	-6	1	106	110
4	O=C(/C=N/O)NCc1ccccn1	-6	-31	98	96
5	CCN1C(=O)C(=Cc2cc(C)n(C3CC3)c2C)C(=O)N(CC)C1=S	-19	-24	100	101
6	O=c1cc(CSc2nnnn2-c2ccccc2)[nH]c(=S)[nH]1	28	-16	100	103
7	O=C(NCc1ccccc1)c1ncn[nH]1	0	-56	101	99
8	COC(=O)c1cc(-c2c(C)oc3cc(O)ccc3c2=O)c(C)o1	102	-18	102	105
9	CCN1C(=O)/C(=C2/C=Cc3ccccc3N2CC)N(C)C1=S	/	-7	93	78
10	Cc1cc(C)n(CCCNC(=O)CSc2ncnc3scc(-c4ccccc4)c23)n1	6	-15	101	101
11	c1ccc(-c2cc3c(ncn4cnnc34)s2)cc1	-14	/	103	105
12	CCn1cc(C(=O)O)c(=O)c2cc(F)c(N(C)CCc3ccc(OC)c(OC)c3)cc21	3	12	100	104
13	O=C(CCSc1nc(-c2ccco2)cc(C(F)(F)F)n1)N1CCCC1	0	0	103	100
14	O=C(CSc1ncc(-c2ccccc2)[nH]1)c1ccc(-c2ccccc2)cc1	/	-16	102	97
15	C1=C(c2cccs2)OC(c2cccs2)=CC1c1cccs1	27	-13	99	103
16	CCNc1nc(NCC)nc(NCCO)n1	-14	32*	99	104
17	COc1ccc(C(=O)NC(=O)CSc2nc3cc(S(=O)(=O)N4CCCCC4)ccc3o2)cc1	-10	-85	110	112
18	COc1ccccc1Cn1c(=S)[nH]c2cc(C(=O)NCC(OC)OC)ccc2c1=O	-4	-3	101	100
19	Cn1c2nc3ccccc3nc2c2c(=O)n(Cc3ccccc3)cnc21	-61	-16	99	102
20	N#C/C(=C\C=N\Nc1ccccc1)c1nn(-c2ccccc2)c(-n2cccc2)c1C#N	-8	-4	101	99
21	CCCn1c(C)cc(/C=C(\C#N)C(=O)Nc2ccccc2)c1C	12	-26	105	108
22	Cc1ccc(SCCN2C(=O)NC3(CCCC3)C2=O)cc1	-9	-8	102	109
23	O=C(CSc1n[nH]c(-c2ccccc2F)n1)NN1C(=O)NC2(CCCCC2)C1=O	-10	-39	101	100
24	Cc1cc(C)n2nc(SC/C(N)=N/O)nc2n1	33	28	105	97
25	O=C(CCCc1c[nH]c2ccccc12)NCCN1CCOCC1	-14	2	101	104

Sorted by SMILES length (descending): some entries from above
No.	SMILES	Mtb MbtI inh	Mtb MenB inh	PV pol inh	PV pol inh intensity
17	COc1ccc(C(=O)NC(=O)CSc2nc3cc(S(=O)(=O)N4CCCCC4)ccc3o2)cc1	-10	-85	110	112
12	CCn1cc(C(=O)O)c(=O)c2cc(F)c(N(C)CCc3ccc(OC)c(OC)c3)cc21	3	12	100	104
20	N#C/C(=C\C=N\Nc1ccccc1)c1nn(-c2ccccc2)c(-n2cccc2)c1C#N	-8	-4	101	99
18	COc1ccccc1Cn1c(=S)[nH]c2cc(C(=O)NCC(OC)OC)ccc2c1=O	-4	-3	101	100
10	Cc1cc(C)n(CCCNC(=O)CSc2ncnc3scc(-c4ccccc4)c23)n1	6	-15	101	101
14	O=C(CSc1ncc(-c2ccccc2)[nH]1)c1ccc(-c2ccccc2)cc1	/	-16	102	97
5	CCN1C(=O)C(=Cc2cc(C)n(C3CC3)c2C)C(=O)N(CC)C1=S	-19	-24	100	101
13	O=C(CCSc1nc(-c2ccco2)cc(C(F)(F)F)n1)N1CCCC1	0	0	103	100
8	COC(=O)c1cc(-c2c(C)oc3cc(O)ccc3c2=O)c(C)o1	102	-18	102	105
1	Cc1ccc(NC(=O)CSc2nnc(C)n3c2cc2sccc23)cc1F	-2	3	101	106
21	CCCn1c(C)cc(/C=C(\C#N)C(=O)Nc2ccccc2)c1C	12	-26	105	108
2	O=c1cc(CO)oc2c1OCN(C1CCS(=O)(=O)C1)C2 (configuration not stated)	7	-9	107	104
22	Cc1ccc(SCCN2C(=O)NC3(CCCC3)C2=O)cc1	-9	-8	102	109
11	c1ccc(-c2cc3c(ncn4cnnc34)s2)cc1	-14	/	103	105
24	Cc1cc(C)n2nc(SC/C(N)=N/O)nc2n1	33	28	105	97
7	O=C(NCc1ccccc1)c1ncn[nH]1	0	-56	101	99
16	CCNc1nc(NCC)nc(NCCO)n1	-14	32*	99	104

Other compounds.
No.	SMILES	Mtb MbtI inh	Mtb MenB inh	PV pol inh	PV pol inh intensity
26	COC(CNC(=O)c1c[nH]c2ccc(S(=O)(=O)N(C)c3ccc(C(C)C)cc3)cc2c1=O)OC	-153	-13	101	102
27	CCCCC(=O)N(c1ccc(C)c(C)c1)C1C=CS(=O)(=O)C1 (configuration not stated)	-3	-6	99	101
28	CC(CC1OCC(CN2CCCCC2)O1)CC(C)(C)C (configuration not stated)	/	-5	107	107
29	CC(=O)n1ccc2ccc(C(=O)CN3CCN(c4ccc(F)cc4)CC3)cc21	12	-24	99	101
30	Cc1ccc(OC(=O)c2ccco2)cc1C	-1	22	101	107
31	CC1(NC(=S)Nc2ccccc2)CCS(=O)(=O)C1 (configuration not stated)	-11	-14	105	110
32	O=C(O)C1CCCCC1C(=O)NCC1CCCCC1 (configuration not stated)	0	10	103	100
33	O=S(=O)(NC1CCCCC1)c1cccc(-c2nnc(-c3ccccc3)o2)c1	/	-22	103	108
34	Cn1cccc1C(=O)Nc1ccc2c(c1)nc1n2CCCCC1	20	-13	100	96
35	Cc1ccc(-n2c(SCc3ccccc3)nnc2-c2cccnc2)cc1Cl	-7	-38	100	106
36	O=c1[nH]c2ccccc2c2ccccc12	6	-1	97&98	102&100
37	NC(CC(=O)OC1CCCCC1)C(=O)OC1CCCCC1 (configuration not stated)	-11	15	101	104
38	COc1ccc(OC2CCNCC2)cc1	-9	4	102	104
39	COc1ccc(N2C(=O)CC(NC34CC5CC(CC(C5)C3)C4)C2=O)cc1 (configuration not stated)	28	-62	100	102
40	CCn1c(C(=O)N2CCC(C(=O)NCc3cccc(OC)c3)CC2)cc2occc21	12	-18	102	105
41	COC(=O)c1c(C)nc(C)c(C(=O)OC)c1-c1csc(S(=O)(=O)N2CCSCC2)c1	-9	-7	109	118
42	NS(=O)(=O)c1ccc(NC(=S)N2CCc3ccccc3C2)cc1	42	-21	100	96
43	Cc1nnsc1C(=O)NCc1c(Cl)cccc1Sc1ccc(Cl)cc1	-6	-33	107	98
44	CCC(=O)Nc1sc2c(c1C(=O)N1CCCCC1)CCCCC2	/	-2	102	105
45	NS(=O)(=O)c1ccc(CNCC(F)(F)F)cc1	11	-18	96	104
46	CCCOc1ccc(-c2nonc2NC(=O)c2oc3ccc(F)cc3c2C)cc1OCCC	0	-26	102	100
47	CCOC(=O)c1ccc(NC(=O)c2cnc3sccn3c2=O)cc1	96	-13	104	107
48	CC1(C)N=C(c2c(F)c(F)c(F)c(F)c2F)N(O)C1(O)c1ccccc1 (configuration not stated)	-2	17	99	102
49	CCN(C(=O)c1ccc2c(=O)n3c(nc2c1)CCCCC3)c1cc(Cl)ccc1OC	-14	-17	105	107
50	O=C(O)c1oc2ccc(Br)cc2c1-n1cccc1	4	1	103	107
51	N#Cc1c(NC(=O)COC(=O)C2=COCCO2)oc(-c2ccccc2)c1-c1ccccc1	-119	5	105	108
52	Cc1sc2nc(SCC(N)=O)n(-c3ccccc3)c(=O)c2c1C	2	8	100	102
53	Cc1ccccc1NC(=O)C(C)Sc1nc2ncccc2o1 (configuration not stated)	10	10	101	98
54	COC(=O)c1ccccc1NC(=O)Nc1ccc(Cl)cn1	9	-31	102	105
55	CC1Cc2ccccc2N1Cc1cccc(S(=O)(=O)N(C)C)c1 (configuration not stated)	1	-8	110	108
56	CC(C)(C)C1CCC(OC(=O)c2ccc3c(c2)OCO3)CC1 (configuration not stated)	-3	5	104	101
57	Cc1cc(C)c(-n2c(SCC(=O)Nc3ccccc3Cl)n[nH]c2=O)c(C)c1	-5	-2	105	106
58	Cc1csc(N(C(=O)/C=C/c2ccco2)c2ccccc2)n1	-9	-18	96	116
59	COCC(C)NC(=O)C1CCN(S(=O)(=O)c2ccc(F)cc2)CC1 (configuration not stated)	-2	-42	103	99
60	COc1ccc(NC(=O)CCCOc2ccccc2)cc1	/	-21	99	104
61	N#CC(C(N)=S)=C1CCCCC1	-3	-131	100	102
62	CCOc1ccc(N=c2scc(-c3ccc(Cl)s3)n2C)cc1	9	0	100	103
63	O=C(NC1CSC/C1=N\O)c1ccccc1 (configuration not stated)	-6	-27	106	100
64	CN(C)c1ccc(C2C3=C(CC(C)(C)CC3=O)Oc3nc(N)c(C#N)c(N)c32)cc1 (configuration not stated)	-4	-40	104	108
65	CC(=O)Nc1ccc(S(=O)(=O)NC2(C(F)(F)F)NC(=O)N(C3CCCCC3)C2=O)cc1 (configuration not stated)	-17	-38	105	99
66	CC1(C)CC2CC(C)(CN2c2nc3ccccc3[nH]c2=O)C1 (configuration not stated)	-95	-22	104	111
67	Cn1c(CSc2nc3ccccc3s2)nnc1SCC(=O)NCCO	/	-19	106	109
68	O=C(c1cc(-c2ccc3c(c2)OCO3)on1)N1CCOCC1	-2	-25	101	107
69	COc1ccccc1C(=O)Oc1ccc(C#N)cc1	81	-9	105	103
70	C=C(C)C[N+](C)(C)Cc1c(C)ccc2ccccc12	/	4	101	97
71	CCCC(=O)N/N=C/c1ccc(Br)cc1	1	-15	103	107
72	Cc1ccc(N(CC(N)=O)S(=O)(=O)c2ccccc2)cc1	-1	-31	100	101
73	Cc1cccc(-c2nsc(SCC(=O)N3CCCCC3)n2)c1	49	6	102	102
74	Cc1ccc(C(=O)CSc2n[nH]c(C(F)(F)F)n2)cc1	-1	13	106	104
75	COc1cccc(NC(=O)Nc2ncccc2C)c1	-4	-23	99	100

Fetched by structure from the entries so far, 2 records:
No.	SMILES	Mtb MbtI inh	Mtb MenB inh	PV pol inh	PV pol inh intensity
67	Cn1c(CSc2nc3ccccc3s2)nnc1SCC(=O)NCCO	/	-19	106	109
49	CCN(C(=O)c1ccc2c(=O)n3c(nc2c1)CCCCC3)c1cc(Cl)ccc1OC	-14	-17	105	107

Next entries.
No.	SMILES	Mtb MbtI inh	Mtb MenB inh	PV pol inh	PV pol inh intensity
76	Cc1csc(C(C#N)C(=O)CSc2nnc(NC3CC3)s2)n1 (configuration not stated)	18	-31	103	107
77	Cc1cc2nc(C)n(CCCNC(=O)Nc3ccc(F)cc3)c2cc1C	0	-12	102	103
78	Nc1cccc2c1C(=O)N(Cc1ccccc1)C2=O	-25	-76	92	115
79	NC(=O)CN1c2ccccc2-c2ccccc2S1(=O)=O	/	-2	103	103
80	CC(C1CC2CCC1C2)n1c(-c2cccs2)n[nH]c1=S (configuration not stated)	67	-63	101	100
81	Cc1ccc2cnn(CC(=O)NCc3cccnc3)c2c1	18	14	99	102
82	CCCCn1c(=O)[nH]c2ccccc21	1	13	104	102
83	Cc1cc2c(cc(C(=O)OC(C(=O)NCC3CCCO3)C(C)C)n2C)o1 (configuration not stated)	14	-6	99	101
84	CC1=C(C(=O)OCC(F)(F)F)C(c2ccc3c(c2)OCO3)NC(=O)N1 (configuration not stated)	/	-6	104	113
85	C/C=N/NC(=O)COc1ccc(Cl)cc1	-2	4	103	103
86	CCCC1CCCCNC1=O (configuration not stated)	-17	-1	99	103
87	Cc1n[nH]c(C)c1N1C(=O)c2cccc3c(Br)ccc(c23)C1=O	8	8	103	102
88	CC(=O)N(c1nnc(-c2ccc(C)cc2)s1)C1CCCC1	9	0	101	104
89	O=C(O)CCc1ccc(-c2ccccc2)n1NC(=O)c1ccccc1Br	7	-4	100	98
90	COC(=O)C1=C(C)NC(=O)/C1=C\c1ccc2c(c1)OCO2	/	-126	109	107
91	CCOc1cccc(=[O+]CC)c2c(C)oc(C)c12	-9	-23	95	108
92	Cc1ccc(NC(=O)NC(=O)Cn2nnc(-c3ccc(Cl)cc3)n2)c(C)c1	15	-15	98	105
93	COCCNC(=O)c1ccc2snnc2c1	13	-23	103	103
94	COC(=O)CN1C(=O)c2ccccc2NC1c1ccc(OC)cc1 (configuration not stated)	88	12	102	104
